Screening results as filed in PubChem BioAssay.
VDR inhibitor: blocks the human vitamin D receptor; P11473; Potency, µM, inactives show max response, negative = inhibition, actives largely listed as inhibitors; actives 0.93% (n = 400,000); VDR-SRC2-3 peptide fluorescence polarization, 2 h; active = well fitted inhibition curve with a large enough effect; inconclusive = small, poorly fitted or top-dose-only effect, or another doubt; inactive = no such curve, though single readings can be large or run the other way; also: series mostly up to about 120 µM
Target sequence (P11473 whole entry, looked up): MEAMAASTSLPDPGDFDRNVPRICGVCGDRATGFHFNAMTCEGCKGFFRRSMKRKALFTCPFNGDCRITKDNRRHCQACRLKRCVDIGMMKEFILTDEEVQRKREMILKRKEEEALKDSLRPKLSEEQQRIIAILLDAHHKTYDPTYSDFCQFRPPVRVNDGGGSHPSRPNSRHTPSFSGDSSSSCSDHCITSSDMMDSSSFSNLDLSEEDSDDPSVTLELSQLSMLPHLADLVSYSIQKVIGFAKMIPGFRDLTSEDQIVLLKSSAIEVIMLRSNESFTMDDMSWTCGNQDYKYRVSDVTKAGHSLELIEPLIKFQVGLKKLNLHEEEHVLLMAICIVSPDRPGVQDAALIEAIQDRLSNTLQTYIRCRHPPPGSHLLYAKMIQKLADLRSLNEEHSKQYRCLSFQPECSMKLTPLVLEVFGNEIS
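Reagent solutions, kept cold and dark, are dispensed first; compounds are then pinned in at 23 nl, plates briefly spun, and incubated 2 h at ambient temperature. Inhibition of VDR–SRC2-3 peptide binding is read by fluorescence polarization.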
An asterisk follows results filed as active; ? = inconclusive; & = joins results of further samples. % is scaled to controls: 0 for no effect and ±100 for the full control effect; potency is read from the fitted curve at half-maximal effect. The list is partial (hit frequency here may not be typical).

SMILES,VDR inhibitor
CC1=NN(c2ccccc2C(=O)O)C(=O)C1N=Nc1ccccc1 (centres undefined),-10.5%
Cc1ccc(S(=O)(=O)Oc2cccc(/C=N/Nc3ccc(C(=O)O)cc3)c2)cc1,1.4%
COCCN(C(=O)c1oc2ccccc2c1COC)c1c(N)n(CC(C)C)c(=O)[nH]c1=O,-2.9%
Cc1ccc(N(C(=O)c2cc3ccccc3oc2=O)C2C=CS(=O)(=O)C2)cc1 (centres undefined),-2.2%
Cc1ccc(S(=O)(=O)n2nc(C)c(S(=O)(=O)N3CCC(C)CC3)c2C)cc1,11.7%
COC(=O)C1(C(=O)OC)CC2=CC(CC2=O)Cc2ccccc2[C@@H]1C[N+](=O)[O-] (some centres undefined),-11.4%
Cc1ccc(C)c(S(=O)(=O)NNC(=O)Nc2ccccc2Cl)c1,-3.8%
COc1ccc(/C=C(\NC(=O)c2ccc([N+](=O)[O-])cc2)C(=O)NCCCN2CCOCC2)cc1,4.5%
Cc1ccc(NC(=O)c2cnn(-c3ccccc3)c2C)cc1C,-6.1%
COc1ccc(-c2csc(NC(=O)C3CCN(C(=O)c4ccc(F)cc4)CC3)n2)cc1OC,-2.1%
CC(Nc1oc(-c2ccccc2)nc1-c1cccc2ccccc12)c1ccccc1 (centres undefined),3.7%
O=C(Nc1nc2ccc(S(=O)(=O)N3CCCC3)cc2s1)c1ccc(F)cc1,-5.8%

Additional records
SMILES,VDR inhibitor
CN(CC(=O)Nc1c(Cl)cccc1Cl)C(=O)c1cccn1C,0.0%
Cn1c(SCC(=O)N/N=C/c2ccc(O)c(O)c2)nc2ccccc21,-1.5%
Fc1ccc(C2=Nn3c(Cc4ccccc4F)nnc3SC2)cc1,8.5%
Nc1ccc(CN2CCOCC2)cc1,1.4%
COc1ccc(OC)c(NC(=O)c2cc(S(=O)(=O)NCCc3ccc(Cl)cc3)ccc2F)c1,6.5%
N#C/C(=N\Nc1ccc(S(=O)(=O)N2CCCCC2)cc1)C(N)=S,?
COCCCNC(=O)C1Cc2cc(S(=O)(=O)N3CCCC3)ccc2N1C(C)=O (centres undefined),?
NNC(=S)NC1CCCCCCCCCCC1,-11.9%
CCOC(=O)N1CCN(Cc2nc3cc(NC(=O)C(C)C)ccc3n2C)CC1,?
COc1cc(Cl)ccc1NC(=O)COc1ccccc1C(=O)N1CCN(c2ccc(O)cc2)CC1,4.9%
Cc1c(C(=O)Nc2ccc(S(=O)(=O)N3CCOCC3)cc2)cccc1[N+](=O)[O-],-0.3%
O=S(=O)(Cc1ccccc1)N1CCC(c2nc(-c3cccs3)no2)CC1,14.6%

Further results
SMILES,VDR inhibitor
O=C(C1CC(=O)N(c2ccc3c(c2)OCCO3)C1)N1CCN(S(=O)(=O)c2ccc(F)cc2)CC1 (centres undefined),7.8%
O=c1[nH]c(/C=C\c2ccc(O)c(Cl)c2)nc(O)c1[N+](=O)[O-],4.1%
COc1ccc(-n2nc(C(=O)NCC(=O)N3CCN(Cc4ccccc4)CC3)c3ccccc3c2=O)cc1,18.3%
CC(=O)OCC1=C(C(=O)O)N2C(=O)C(NC(=O)Cc3ccccc3)C2SC1 (centres undefined),-3.0%
COCCn1c(SCC(=O)N2CCCc3ccccc32)nc2c(c1=O)SC(C)C2 (centres undefined),-11.3%
CN(C)c1nc(-c2ccccc2)c2cnn(Cc3ccccc3)c2n1,-3.5%
CNC(=S)N(Cc1ccco1)Cc1cc2cc(OC)ccc2[nH]c1=O,-5.7%
Clc1ccc(N=C2SCC3CCCCN23)cc1 (centres undefined),-12.0%
CCCOC(=O)c1c(N)sc2c1CCC2,-12.5%
Cc1ccccc1-c1nnc(SCc2ccccc2F)o1,-3.9%
O=C(Nc1nn[nH]n1)c1cc(-c2ccc(Cl)c(Cl)c2Cl)nc2ccccc12,-7.5%
Cc1cc(C(=O)OCC(=O)NC(C)(C)C)c2ccccc2n1,5.6%

Next part:
SMILES,VDR inhibitor
C/C(=N/NC(=O)Cn1nc2ccccc2n1)c1ccc(F)cc1,-9.0%
Cc1ccc(S(=O)(=O)N2CCC(c3nc4c(nnn4Cc4ccccc4)c(=O)[nH]3)CC2)cc1,-10.7%
CC1CN(Cc2ccco2)C(=S)N(c2ccccc2)C1=O (centres undefined),8.1%
CC(C)C(=O)Nc1c(-c2cccc(Cl)c2)c(=O)c2ccccc2n1C,-15.4%
COc1ccc(C2CCCN2C(=S)Nc2cccc(C)c2)cc1OC (centres undefined),4.1%
O=c1c(CN2CCN(Cc3ccccc3F)C(CCO)C2)coc2ccccc12 (centres undefined),-3.2%
COc1ccc(-c2nn(-c3ccccc3)cc2CNC(=O)c2cccc([N+](=O)[O-])c2)cc1,-1.2%
Cc1cc(NC(=O)Nc2ccc(Cl)cc2)n(C)n1,-6.5%
CS(=O)(=O)N(CC(=O)NCCSCc1ccco1)c1ccc2c(c1)OCO2,3.8%
CC(=O)Nc1ccc(S(=O)(=O)N2CCc3cc4c(cc3C2C)OCCCO4)cc1 (centres undefined),-4.2%
CC1CCCC(C)N1C(=O)CSCc1ccc(Cl)cc1 (centres undefined),-14.1%
NS(=O)(=O)c1ccc(NC(=O)c2ccc3c(c2)CCCC3)cc1,-1.5%

(cont.)
SMILES,VDR inhibitor
N=c1c2c(-c3ccccc3)c(-c3ccccc3)oc2ncn1CCCN1CCOCC1,5.0%
CC(=O)Nc1ccc(C23CC4CC(CC(C4)C2)C3)cc1,-2.2%
Cc1cc2nc3c(=O)[nH]c(=O)nc-3n(CC(O)C(O)C(O)COP(=O)(O)O)c2cc1C (centres undefined),-17.0%
COCCn1c(=O)[nH]c2cc(C(=O)N3CCN(c4ccccc4)CC3)ccc2c1=O,8.4%&-4.6%
CC(C)(C)c1cc(NC(=O)CCSc2nnc3ccccn23)cc(C(C)(C)C)c1,18.1%
COc1cccc(-c2cnc(OC(C)(C)C)nc2OC(C)(C)C)c1,-8.7%
N/C(=N\OC(=O)N1CCOCC1)c1ccccc1,-8.1%
COc1cccc(CNC(=O)c2nnn(-c3ccc(OC(F)(F)F)cc3)c2N)c1,11.1%
COc1ccc(N2CCN(C(=O)c3ccc(C)c(NC(=O)c4ccco4)c3)CC2)cc1,-20.6%
COC(=O)C(C(=O)NCC1CCCO1)C1CCCCCC1 (centres undefined),-6.3%
COc1ccccc1OCC(=O)NCCSCc1cccc(Cl)c1,-25.3%
CCOC(=O)C1(C(=O)O)NC(=O)CC1c1ccccc1 (centres undefined),5.5%

(next part)
SMILES,VDR inhibitor
Cc1ccc(NC(=O)c2cc(N3C(=O)C4CCCCC4C3=O)ccc2N2CCOCC2)cc1 (centres undefined),0.6%
COc1ccc(NC(=O)COC(=O)c2n[nH]c3ccccc23)c(OC)c1,-5.9%
COc1ccc(NC(=O)CN(C)C(=O)c2cn(-c3ccccc3)nc2-c2ccc(OC)cc2)cc1,-10.3%
C=CC[C@@H](CC(=O)N[C@H](CO)Cc1ccccc1)C(=O)N[C@H](COC(=O)[C@@H](CC=C)CC(=O)OC(C)(C)C)Cc1ccccc1,9.0%
O=C(Cc1cn2ccsc2n1)OCc1nc2ccccc2s1,-2.1%
COc1ccc(-c2cccc(C3CC=CC4C3C(=O)N(Cc3ccccc3)C4c3ccc(C(F)(F)F)cc3)c2)cc1 (centres undefined),-17.6%&4.1%
CCCCOP(=O)(OCCCC)C1(NS(=O)(=O)c2ccccc2)C=CC(=O)c2ccccc21 (centres undefined),-5.1%
Cc1nnc(SCCn2c(N3CCCC(C)C3)nc3c2c(=O)[nH]c(=O)n3C)s1 (centres undefined),2.1%
CC1=CC(=O)C(C(C)C)=C/C1=C(\c1cc(C(C)C)c(OP(=O)(O)O)cc1C)c1ccccc1C(=O)O,?
COc1cc(CNC(=O)CCCC/C=C\C(C)C)ccc1O,-3.6%
Cc1ccc(Cl)cc1N1CCN(C(=O)CCCn2c(=O)[nH]c3ccc(Br)cc3c2=O)CC1,-21.0%
CCOc1ccc(OCC)c(NC(=O)CN2CCN(c3cccc(C)c3C)CC2)c1,-2.9%

(list continues)
SMILES,VDR inhibitor
CCCCC(=O)OC1=C(C(=O)c2ccccc2)N(C)S(=O)(=O)c2ccccc21,-13.9%
COC(=O)CCCCCN1C(=O)NC(c2ccc(-c3ccccc3)cc2)C(C(=O)OCc2ccccc2)=C1C (centres undefined),-22.7%
Cc1cccc(C(=O)Nc2ccc3nc(SCC(=O)N4CCCC4)sc3c2)c1,1.7%
O=C(Nc1nccs1)c1ccc2ccccc2c1,9.4%
Cc1csc(NC(=O)CN2C(=O)c3ccccc3C2=O)c1C(N)=O,-1.5%
Nc1o[nH]c(=O)c1Cc1ccccc1,-24.5%
CNCCCOc1cc(C)cc(C)c1C,11.9%
Cc1cc(NC(=O)c2nn(C)c(C)c2Br)no1,3.1%
COCCNc1nnc(SCC(=O)NNC(=O)c2ccccc2)s1,-9.9%
O=C(NC1CCCCC1)c1cnn2c(C(F)(F)F)cc(-c3ccco3)nc12,-11.3%
Cc1ccc(-c2c(C(=O)N/N=C/c3sccc3C)nnn2-c2nonc2N)cc1,0.6%
Cc1cc(N2CCN(S(=O)(=O)c3ccc(Br)cc3)CC2)n2ncnc2n1,-11.6%

Going on with the list.
SMILES,VDR inhibitor
Cc1ccc(-n2c(=O)[nH]c3c(C(N)=O)nc(-c4ccc(C)o4)nc32)cc1,8.2%
COc1ccc(-c2noc(Cn3cc(S(=O)(=O)N4CCCC4)ccc3=O)n2)cc1,1.1%
CCOc1ccc(NC(=O)N2CCCC2C(=O)NCC2CCCO2)cc1 (centres undefined),1.9%
O=c1[nH]c(-c2ccccc2)nc(-c2ccccc2)c1Cl,11.1%
O=C1C2=C(CCCC2)C(=O)N1CNc1ccccc1,-13.3%
COc1ccc(OCC(=O)Nc2ccc(C)cc2)cc1,-6.9%
CCCCN1C(=O)C(=O)N(CC(=O)c2cc(C)n(C3CC3)c2C)C1=O,-9.0%
O=C(CSc1nccn1-c1ccccc1)N1CCc2ccccc21,14.3%
CC(C)(C)n1nnnc1CN1CCN2CCCC2C1 (centres undefined),0.6%
Cc1ccc2c(c1)C(=O)CC(c1ccc3c(c1)OCCO3)O2 (centres undefined),1.6%
O=C(Cc1ccsc1)NNC(=O)c1cccc(Cl)c1,-1.6%
CCOC(=O)c1c(/N=C/c2cccc([N+](=O)[O-])c2O)sc(C)c1C,?

Next section:
SMILES,VDR inhibitor
CN(C)CCn1c(COc2ccccc2)nc2ccccc21,-3.9%
CN(C)C(=O)COc1ccc2cc(-c3ccccc3)c(=O)oc2c1,2.7%
CCCCOc1ccc(CN2CCCCC2)cc1,-0.2%
CN(Cc1cccc2cnccc12)C(=O)CCc1nnc(CCc2ccccc2)o1,-18.3%
O=c1c(-c2ccc(F)cc2)nc2cncnc2n1-c1ccccc1,2.7%
Cc1ccc(-c2cc(C(F)(F)F)n3nc(C(=O)Nc4ccc(Cl)c(C(F)(F)F)c4)cc3n2)cc1,9.0%
CC(C)c1nc2cc(C(=O)N(C)C3CCOCC3)ccc2o1,10.0%
CCC(OC(=O)c1cc2sccc2n1C)C(=O)NCc1ccco1 (centres undefined),-10.7%
COc1cc(/C=C2/C(=O)NN(c3ccccc3)C2=O)cc(Br)c1O,?
O=C(O)C(C1CCCCC1)C1(O)CCCC1 (centres undefined),-8.6%
CCn1c(SCc2ccccc2Cl)nc(=O)c2c(C(=O)OC)cc(C3CC3)nc21,1.6%
CCCCC(=O)Nc1nnn(CCC)n1,-9.1%

Reformatted: results already given
VDR inhibitor,molecule
-3.9%,CN(C)CCn1c(COc2ccccc2)nc2ccccc21
2.7%,CN(C)C(=O)COc1ccc2cc(-c3ccccc3)c(=O)oc2c1
-0.2%,CCCCOc1ccc(CN2CCCCC2)cc1

Next section:
SMILES,VDR inhibitor
N#C/C(=C/c1cn(CC(=O)O)c2ccccc12)C(=O)Nc1ccccc1,-20.7%
Cc1ccc2cccc(NC(=O)COc3ccccc3Cl)c2n1,2.7%
OCCOCCOc1ccc(-c2nn[nH]n2)cc1,2.6%
O=C(OCCN1C(=O)c2ccccc2C1=O)c1cc(S(=O)(=O)N2CCOCC2)ccc1F,4.3%
Cc1cccc(N2C(=O)CC(NNc3nc4ccccc4s3)C2=O)c1 (centres undefined),-5.3%
CCOC(=O)N1CCN(C(=S)NC2CCCCC2)CC1,8.4%
COc1cccc(-c2noc(CCCC(=O)Nc3ccc(C(N)=O)cc3)n2)c1,-6.0%
O=C1CCc2cc(S(=O)(=O)NCCc3ccccc3)cc3c2N1CC3,-8.4%
COc1cccc(N2CCN(S(=O)(=O)c3cc(-c4cc(C)no4)ccc3C)CC2)c1,11.2%
CC1CCC(NC(=O)Cn2c(=O)oc3cc(S(=O)(=O)N4CCCC4)ccc32)CC1 (centres undefined),-1.9%
Nc1ncnc2c1ncn2[C@@H]1O[C@H](CNS(=O)(=O)c2ccc3c(c2)CCN(C(=O)C(F)(F)F)C3)[C@@H](O)[C@H]1O,-5.1%
Cc1nc2ccc(S(=O)(=O)Nc3cccc(-c4nc5cccnc5s4)c3C)cc2s1,-19.8%
O=C(Cc1ccc(O)cc1)N/N=C/c1cccs1,5.3%
O=C(CN1C(=O)CCSc2ccccc21)Nc1ccccc1F,-10.5%

Part of the list above, field by field:
SMILES: O=C(OCCN1C(=O)c2ccccc2C1=O)c1cc(S(=O)(=O)N2CCOCC2)ccc1F
  VDR inhibitor: 4.3%
SMILES: Cc1cccc(N2C(=O)CC(NNc3nc4ccccc4s3)C2=O)c1 (centres undefined)
  VDR inhibitor: -5.3%
